# eIF4H inh – inhibitors of RNA binding by human eIF4H. eIF4H fluorescence polarization binding assay. inhibition, % at 35 µM. 290,000 compounds, 0.94% hits;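 active = 50% or more with normal probe brightness, or confirmed in later tests; inconclusive = above 50% with abnormal brightness, or retests that disagree; inactive = below 50% or failed in later tests; about a fifth of its hits are not listed in these tables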;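 note: calls also rest on retests at 20 µM and on dose response follow-up; 0% = protein and probe with vehicle and 100% = probe without protein; strong numbers were not always called active; many hits fall short of the cut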
# HIV Env fusion – HIV envelope-mediated fusion inhibition | HeLa-JRFL Env/CEM21 cell fusion, luciferase | inhibition, % at 12.3 µM | 360,000 compounds, 1.1% hits | AID 651610;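 active = mean replicate inhibition score of at least 50 and every replicate individually at or above 50; inconclusive = only one of the two criteria met; inactive = mean below 50 and not all replicates reaching 50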;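 note: 0% = plate neutral controls and 100% = maraviroc near 300 nM; one replicate is shown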
# UUG fidelity – modulators of start codon recognition fidelity in yeast. S. cerevisiae UUG-firefly luciferase reporter, luminescence/redox ratio. activity score, % at 18.7 µM. 350,000 compounds, 0.13% hits;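 active = replicate mean at a twofold rise or more, about +100% in these data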;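 note: firefly luciferase made from a UUG start codon reports start codon fidelity; reporter light over untreated wells divided by growth signal over untreated wells; some hits fall short of that in this replicate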
# PABP polyA inh – PABP-poly(A) binding inhibition; PABP-poly(A) RNA binding, fluorescence polarization; inhibition, % at 35 µM; 290,000 compounds, 1% hits;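 active = 50% or more with normal probe brightness, or confirmed in later tests; inconclusive = above 50% with abnormal brightness, or retests that disagree; inactive = below 50% or failed in later tests; about a fifth of its hits are not listed in these tables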;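 note: calls also rest on retests at 20 µM and on dose response follow-up; controls were probe without protein and protein plus probe with vehicle; some compounds called inactive have numbers as strong as hits; many hits fall short of the cut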
# Target sequence (P11940 whole entry, looked up): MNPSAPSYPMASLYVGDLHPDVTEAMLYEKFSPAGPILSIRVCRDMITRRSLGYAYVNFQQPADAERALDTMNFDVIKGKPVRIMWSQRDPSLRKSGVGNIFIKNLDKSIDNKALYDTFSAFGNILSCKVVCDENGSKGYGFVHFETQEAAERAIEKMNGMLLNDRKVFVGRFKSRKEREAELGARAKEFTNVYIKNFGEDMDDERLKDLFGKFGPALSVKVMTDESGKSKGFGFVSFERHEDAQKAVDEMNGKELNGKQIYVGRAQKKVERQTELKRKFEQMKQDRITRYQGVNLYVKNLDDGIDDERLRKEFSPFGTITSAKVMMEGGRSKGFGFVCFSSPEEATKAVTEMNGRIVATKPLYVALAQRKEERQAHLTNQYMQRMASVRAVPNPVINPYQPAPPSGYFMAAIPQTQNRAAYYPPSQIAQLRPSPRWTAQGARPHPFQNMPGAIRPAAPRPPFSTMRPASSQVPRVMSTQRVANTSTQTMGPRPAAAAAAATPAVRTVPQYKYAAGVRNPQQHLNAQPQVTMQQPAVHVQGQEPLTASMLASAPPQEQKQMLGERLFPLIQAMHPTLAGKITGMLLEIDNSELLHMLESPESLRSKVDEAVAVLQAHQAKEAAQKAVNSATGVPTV
# Rce1 inhib – blocks yeast Ras-converting enzyme. Q03530. yeast membranes, quenched prenylated peptide cleavage fluorescence. calls only. 290,000 compounds, 0.27% hits. AID 2563;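 active = fall in fluorescence gain of 50% or more versus controls, with final raw signal at or below 3038400; inconclusive = same 50% fall but final raw signal above 3038400; inactive = fall in fluorescence gain under 50%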;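 note: plate controls were neutral control wells for no effect and wells lacking membranes for full effect; tested at 10 µM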
# CSC inhib – blocks cancer stem cells; AID 2717; 300,000 compounds, 1.1% hits; cancer stem cell-like cells viability, luminescence; inhibition, % at 7.5 µM;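 active = mean at 75% or more and at least half the replicates too; inconclusive = mean and replicates disagree; tested in HMLE shEcad cells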;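 note: 0% = median of negative and 100% = median of positive control wells; the first replicate is given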
# MT1-MMP act inh – blocks activation of human MT1-MMP; HT1080 RFP-PRO-GFP cells, GFP/RFP ratio fluorescence, overnight; percent of plate control window, DMSO zero; GFP/RFP ratio change, % at 20 µM; 360,000 compounds, 0.061% hits;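 active = GFP/RFP ratio change of at least 30% with cell ATP level not reduced by more than half and red fluorescence within 50% of control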; note: strong numbers were not always called active
#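 Compound: 20 µM single dose, 1% DMSO / System: HT1080 RFP-PRO-GFP cells / Controls: DMSO and RFP-L50D-GFP cell wells / Read-out basis: GFP/RFP fluorescence ratio / Schedule: overnight compound exposure at 37 °C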
# eIF4H inh retest – second read-out of eIF4H inh, no call of its own (marks repeat the call); inhibition, %; compound at 20 µM; confirmation average;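 mean of two retest wells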
# PABP polyA inh retest – also measured in PABP polyA inh; calls as there; inhibition, %; compound at 20 µM; confirmation repeats;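 mean of two retest wells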
# MT1-MMP act inh RFP – recorded beside MT1-MMP act inh, whose call it bears; RFP signal change, %; measured here: RFP expression control read;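 0 = vehicle wells; hits needed this value within 50% of zero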
# * = called active by the depositor; i = inactive; u = inconclusive; x = no result given; & = joins results of further samples. Not all compounds are listed; rates above refer to the full screens.
SMILES,eIF4H inh,HIV Env fusion,UUG fidelity,PABP polyA inh,Rce1 inhib,CSC inhib,MT1-MMP act inh,MT1-MMP act inh RFP,others
Cc1ccc(C(=O)c2ccc(N3CCOCC3)c(F)c2)cc1,-4,x,15,-9,i,11,4,-9,
CCOC(=O)CNC(=O)CCNS(=O)(=O)c1ccc2c(c1)c(=O)n(C)c(=O)n2C,-1,x,-14,-7,i,-2,1,-1,
N#CCC(=O)N/N=C\c1ccc(OC/C=C/c2ccccc2)cc1,11,-24,-11,5,i,-3,-1,-4,
Cc1ccc(C(=O)c2ccc(C(F)(F)F)cc2)cc1,-7,x,x,-7,i,-15,x,x,
CC1CCCCN1S(=O)(=O)c1ccc(C(=O)Nc2nnc(C3=COCCO3)o2)cc1 (stereo not drawn),5,-2,-32,2,i,43,-3,1,
Cc1cc(-c2ccccc2)[nH]c(=O)c1S(=O)(=O)c1ccc(Cl)cc1,-10,-51,-2,-4,i,-7,3,-2,
COc1ccc(CNC(=O)c2cnc3n(c2=O)CCS3)cc1,8,6,5,-2,i,-6,-3,3,
N#Cc1ccc(/C=C2\CCn3c2nc2cc(C(=O)O)ccc2c3=O)cc1,6,-10,-9,5,i,-2,0,-1,
NC1=Nc2cccc3cccc1c23,92,-3,-11,0.8*,i,2,47,57,eIF4H inh retest=47;PABP polyA inh retest=51*
CCCCNc1cc(=O)n(C)c(=O)n1C,-8,x,-3,-7,i,x,5,5,
CC1(C)c2ccccc2N(CC(N)=O)C12C=Cc1ccccc1O2 (stereo not drawn),-1,18,5,9,i,-15,7,6,
COc1ccc(C(=O)/C=C/Nc2cccc(C)n2)cc1OC,7,x,-10,4,i,-7,1,-1,
C=C(C)Cn1c2ccc(NC(=O)NCc3ccc(F)cc3)cc2c(=O)n1C,x,5,-9,x,x,x,1,2,
Cc1ccc2sc(-c3ccc(NC(=O)CCN4C(=O)c5ccccc5C4=O)cc3)nc2c1,2,-156,x,-2,i,-16,x,x,
CC1(C(=O)Nc2ccc3c(c2)OCCO3)CCN1C(=O)C1(c2ccc(Cl)cc2)CC1 (stereo not drawn),x,-54,-14,x,x,x,-1,-8,
Cc1ccc(C2=NN(C)c3nc4ccccc4n3C2)cc1,-6,x,x,-8,i,-9,-1,-5,
COc1ccc(/C=N/N2CCN(C)CC2)cc1OC,4,x,x,-6,i,-1,5,0,
CC(C)C(NC(=O)c1ccccc1F)C(=O)NCc1ccccc1 (stereo not drawn),-1,4,-11,2,i,0,2,2,
COc1cccc(OC)c1C(=O)Nc1cccc(-n2cnnn2)c1,-4,-5,0,4,i,3,-6,1,
Cc1ccc(S(=O)(=O)N(C)CC(=O)O/N=C(\N)c2cccc(Br)c2)cc1,-4,-126,-13,1,i,25,4,2,
Cc1ccc(O)c(NC(=O)c2cc(-c3cccs3)on2)c1,-14,-22,-8,11,i,19,-4,-9,
O=C(COc1ncnc2sccc12)Nc1ccc2c(c1)OCCO2,-4,-11,-12,1,i,-1,1,9,
Cc1csc(NC(=O)CNC(=O)OCc2ccccc2)n1,0,-6,-17,0,i,5,0,3,
S=C1N(c2ccccc2)C(c2ccccc2)N2CCCN12 (stereo not drawn),2,-64,-14,-1,i,4,2,5,
CCN(CC)S(=O)(=O)c1cc(C(=O)OCC(=O)Nc2cccc(C)c2C)ccc1F,5,11,x,-18,i,x,9,2,
CC(C)OC(=O)c1cc2c(ccn2C)n1CC(=O)N1CCC(Cc2ccccc2)CC1,6,-30,-9,8,i,7,-7,-6,
C#CCOCCOCCOCCNc1nc(N2CCN(C(=O)CCCCCCCCCCNC(=O)[C@@H](CCSC)n3cc(CCO)nn3)CC2)nc(N2CCN(C(=O)CCCCCCCCCCNC(=O)[C@H](CCCN=C(N)N)n3cc(C[C@@H](C)CC)nn3)CC2)n1,x,x,-7,x,x,67,5,1,
CN1CCN(CC(=O)Nc2cc(S(=O)(=O)N3CCOCC3)ccc2Cl)CC1,x,-51,-6,x,i,-15,-4,1,
CCCCc1nc(C(N)=O)c2[nH]c(=O)n(-c3ccc(OCC)cc3)c2n1,-2,x,0,6,i,-8,6,2,
CC1CN(c2nc3ccccn3c(=O)c2/C=C(\C#N)S(=O)(=O)c2ccccc2)CC(C)O1 (stereo not drawn),14,-14,10,10,i,-2,3,0,
COc1ccccc1C(=O)NCCC(=O)NCC(c1ccccc1OC)N1CCCC1 (stereo not drawn),x,8,-6,x,i,-8,-4,0,
COc1ccc(OC)c(NC(=O)c2ccccc2N(Cc2ccccc2)S(C)(=O)=O)c1,-6,26,x,-6,i,-12,-4,-6,
COc1cc(OC)cc(C(=O)NC2CC(C)(C)NC(C)(C)C2)c1,-15,4,-8,-9,i,-4,0,1,
COc1ccc(C(C(=O)NC2CCCC2)N(CCN2CCOCC2)C(=O)c2ccc(OC)c(OC)c2)cc1 (stereo not drawn),-5,x,-13,2,i,-8,-3,1,
NS(=O)(=O)c1ccc(NC(=O)C2(c3ccccc3)CCCC2)cc1,u,29,x,94*,i,-12,-1,-2,PABP polyA inh retest=88*
COc1ccc(C(=O)N2c3cc4c(cc3C(C)=CC2(C)C)OCO4)cc1,8,x,3&1,0,i,x,-9,-6,
O=C(OCC(=O)N1CCCC1)c1cc(Cl)ccc1[N+](=O)[O-],3,17,-12,0,i,-15,2,-1,
Cc1ccc(C(c2nnnn2CC2CCCO2)N2CCN(Cc3ccccc3)CC2)cc1 (stereo not drawn),-4,-26,x,13,i,-1,-2,3,
CC1(C)C(N(O)C(=O)Nc2ccc(Cl)cc2)N(c2ccc(Cl)cc2)C(=O)N1CC(=O)NN (stereo not drawn),-12,-1,2,7,i,-2,0,1,
COc1ccccc1CNC(=O)c1csc(Cc2ccc(Cl)cc2)n1,-9,x,0,-6,i,-3,-13,-10,
CCc1cc(CNC(=O)C2CCC(=O)N(Cc3cccc(F)c3)C2)on1 (stereo not drawn),2,-21,-3,12,i,16,1,5,
Cc1c(C(=O)NCCSCc2c(F)cccc2Cl)cnn1-c1ccc(F)cc1,-10,15,-7,2,i,27,5,-2,
CN=C(Nc1ccc(C(=O)OC)s1)c1ccc(Cl)cc1,3,14,x,0,i,16,0,2,
CCCC(=O)C1=C(O)C(C(=O)OC)C(C)(C)CC1=NC(C)(C)C (stereo not drawn),-4,x,0,10,i,-8,-3,-1,
O=C(/C=C/c1ccco1)Nc1ccccc1C(=O)Nc1cccc(C(=O)O)c1,u,-3,15,36*,i,-13,-3,5,PABP polyA inh retest=94*
O=C(Nc1cccc(-c2csc(Nc3ccc(Cl)cc3)n2)c1)c1cc([N+](=O)[O-])cc(C(F)(F)F)c1,-5,6,-11,2,i,108*,5,-11,
C=C(C)COc1ccc(-c2ncncc2-c2ccc(Br)cc2)c(O)c1,-9,18,-16,-5,i,7,2,-2,
COc1ccccc1Oc1ccc(N2CC(C(=O)OCC(=O)c3ccccc3)CC2=O)cc1 (stereo not drawn),-12,14,0,-5,i,1,-2,-1,
COc1ccc(OC)c(NC(=O)CCC(=O)Nc2nnc(C(F)(F)F)s2)c1,-18,x,-15,-1,i,-2,-4,-2,
COCCC(=O)N1CCCC(C(=O)c2ccc(C(F)(F)F)cc2)C1 (stereo not drawn),1,4,-16,-3,i,-7,-2,-5,

# Other structures:
SMILES,eIF4H inh,HIV Env fusion,UUG fidelity,PABP polyA inh,Rce1 inhib,CSC inhib,MT1-MMP act inh,MT1-MMP act inh RFP,others
Cc1ccc(S(=O)(=O)/C(C#N)=C/c2c(N3CCOCC3)nc3ccccn3c2=O)cc1,-8,-324,26,7,i,x,-9,0,
CC1CCCC(NC(=O)COC(=O)COc2ccc(Cl)cc2)C1C (stereo not drawn),2,-30,-6,5,x,-12,-3,3,
O=C1CN(C(=O)CSc2nc(-c3ccccc3)cs2)c2ccccc2N1,2,17,x,20,i,x,1,0,
COc1ccccc1C(=O)OCC(=O)NC(=O)NC1CCCC1,x,-7,-6,x,x,x,-2,7,
Cc1cc(C)c[n+](-c2[nH]c(=O)sc2/C=N/N=C(\[O-])c2cccnc2)c1,8,0,-20,24,i,-17,2,6,
Cc1ccc(C)c(N2C(=O)CC(Cc3ccccc3)C2=O)c1 (stereo not drawn),-6,0,-13,-6,i,0,-4,-4,
CC(=O)NCCC(=O)Nc1nc(-c2ccc3ccccc3c2)cs1,-7,3,-2,-1,i,x,-4,-5,
COc1cccc(OC)c1C(=O)NC(=S)Nc1ccc2oc(=O)ccc2c1,-10,13,-12,5,i,-1,-2,-1,
CN(C)c1ccncc1C(=O)Nc1ccc(F)cc1F,23,8,x,-7,i,-14,8,-3,
Cc1ccc(S(=O)(=O)NCC(=O)OCC(=O)c2cccs2)cc1,-9,29,-7,11,i,-5,-1,3,

# By substructure: the compounds so far containing a thiophene ring, fused or not (4)
SMILES,eIF4H inh,HIV Env fusion,UUG fidelity,PABP polyA inh,Rce1 inhib,CSC inhib,MT1-MMP act inh,MT1-MMP act inh RFP,others
Cc1ccc(O)c(NC(=O)c2cc(-c3cccs3)on2)c1,-14,-22,-8,11,i,19,-4,-9,
O=C(COc1ncnc2sccc12)Nc1ccc2c(c1)OCCO2,-4,-11,-12,1,i,-1,1,9,
CN=C(Nc1ccc(C(=O)OC)s1)c1ccc(Cl)cc1,3,14,x,0,i,16,0,2,
Cc1ccc(S(=O)(=O)NCC(=O)OCC(=O)c2cccs2)cc1,-9,29,-7,11,i,-5,-1,3,

# Further compounds
SMILES,eIF4H inh,HIV Env fusion,UUG fidelity,PABP polyA inh,Rce1 inhib,CSC inhib,MT1-MMP act inh,MT1-MMP act inh RFP,others
Cc1ccc(F)c(S(=O)(=O)NC(=O)C2(C)CCN2C(=O)COc2ccc(Cl)cc2)c1 (stereo not drawn),x,-14,4,x,x,x,0,2,
CC(NC(=O)COc1ccc(Br)cc1)C(=O)O (stereo not drawn),0,x,-9,12,i,-9,1,-3,
CC(=O)C1=C(C)NC(SCC(=O)c2ccc(Cl)cc2)=C(C#N)C1c1ccco1 (stereo not drawn),5,x,-7,0,i,3,-44,2,
CCOC(=O)c1cnc(SCC(=O)N2CCN(c3ccccc3)CC2)nc1N,1,x,-11,-12,i,-10,-7,3,
Cc1c(C#N)c(O)[nH]c(=O)c1N=Nc1ccc(Cl)c(C(=O)O)c1,-11,3,-5,-2,i,0,0,0,
Cc1ccc([N+](=O)[O-])c(-c2n[nH]c(=S)n2-c2cccc(Cl)c2)c1,-4,6,-26,2,i,11,4,0,
COc1ccccc1CC(=O)NC1CC(C)(C)NC(C)(C)C1,2,-49,-1,-11,i,-19,8,5,
Cc1cc2ccccc2n1CCNC(=O)c1ccccc1,23,x,x,20,i,-10,61,74,
COc1ccc(-c2c(-c3cc(OC)cc(OC)c3)n(C)c3ccc(-c4ccc5cc[nH]c5c4)cc23)cc1,x,3,-3,x,x,x,0,-1,
COc1cc(Cl)c(C)cc1NC(=O)CCNC(=O)c1ccco1,3,12,-4,-6,i,-1,-3,1,
COc1ccc2[nH]c3c(c2c1)CCN1C(=O)N([C@@H](C)C(=O)NCCc2ccc(F)cc2)C(=O)[C@]31C,-10,x,5,-13,i,-5,4,-13,
FC(F)(F)c1cc(-c2ccccc2)nc(NCc2cccs2)n1,3,3,-17,2,i,-13,-5,-10,
Cc1ccc(C(=O)NNC(=O)Cc2ccccc2)cc1,-10,-10,0,-1,i,x,0,1,
Cc1nn(C(=O)CN2C(=O)c3ccccc3C2=O)c(C)c1Br,-3,x,x,-7,i,-3,6,6,
